Ecoli rRNA inh: selective bacterial rRNA inhibition in E. coli; E. coli WT GFP vs humanized-ribosome RFP mutants, fluorescence, 24 h; hits give low values; DMSO median 0, no signal -100; GFP signal change (wild-type ribosome), % (no concentration beside the values); hit rate 1.6% among 350,000;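 active = significant combined selectivity score with lowered wild-type GFP, culture density cut under 30%, mutant RFP and density less affected; inactive = any of these conditions unmet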; note: one replicate is shown; some compounds called inactive have numbers as strong as hits
ALR H2O2 inh: human ALR oxidase inhibition via reduced H2O2; purified ALR, DTT oxidation, H2O2 HRP-luminol luminescence; P55789; AID 485317; inhibition, % (no concentration beside the values); hit rate 3.8% among 290,000;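 active = mean and each replicate at 75% or more; inconclusive = only one of the two met; inactive = neither met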;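 note: stock transfer was 7.5 nL into about 7.5 µL; 0% = neutral wells and 100% = wells with inactivated enzyme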
Beta2AR agonist: agonists of human beta-2 adrenergic receptor inducing internalization; P07550; Am2.2-beta2AR cells, FAP receptor internalization, flow cytometry; reference of the scale not given here; response, % (test concentration not listed); hit rate 0.43% among 340,000; AID 504454;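 active = response above a set limit, near 3 SD of response in nonfluorescent compounds, cut at about 42% in these data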;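 note: stock transfer was 100 nL into about 11 µL; a reference agonist was the positive control; negative values mostly stem from fluorescent compounds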
Target sequence (P07550 whole entry, looked up): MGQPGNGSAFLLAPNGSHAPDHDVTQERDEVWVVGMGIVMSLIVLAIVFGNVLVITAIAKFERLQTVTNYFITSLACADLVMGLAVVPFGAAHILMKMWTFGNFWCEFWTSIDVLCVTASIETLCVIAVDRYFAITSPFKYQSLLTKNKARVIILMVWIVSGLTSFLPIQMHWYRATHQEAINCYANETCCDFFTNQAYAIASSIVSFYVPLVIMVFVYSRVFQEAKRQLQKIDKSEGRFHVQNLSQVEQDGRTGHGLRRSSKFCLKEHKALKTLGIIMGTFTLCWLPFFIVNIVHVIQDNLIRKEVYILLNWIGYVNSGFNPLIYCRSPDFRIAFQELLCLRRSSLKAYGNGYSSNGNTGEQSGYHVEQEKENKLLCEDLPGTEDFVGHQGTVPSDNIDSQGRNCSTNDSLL
FGF22 binding: FGF22 (human) thermal shift binding; AID 651658; Q9HCT0; hit rate 1.5% among 340,000; calls only at 9.99 µM; recombinant FGF22 thermal shift, SYPRO orange fluorescence; percent of sucrose octasulfate shift, DMSO zero;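 active = melting point raised past a set limit in the mean and every replicate; inconclusive = no clear call; three in four hits are not shown here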
Target sequence (Q9HCT0 whole entry, looked up): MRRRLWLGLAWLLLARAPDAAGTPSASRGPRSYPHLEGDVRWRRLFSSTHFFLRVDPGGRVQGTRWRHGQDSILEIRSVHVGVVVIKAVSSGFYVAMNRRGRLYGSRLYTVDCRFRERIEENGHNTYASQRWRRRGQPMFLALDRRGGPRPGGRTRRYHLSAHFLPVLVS
E coli growth: E. coli growth inhibition | hit rate 0.21% among 330,000 | OD600 absorbance (no concentration beside the values) | Escherichia coli growth, OD600, 23 h; hits give low values;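 active = OD600 absorbance below the run mean of sample wells minus 3.6 SD, in any replicate, cut at about 0.56 in these data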;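 note: stock transfer was 300 nL into about 60 µL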
HNF4A DNA FP: change in binding of human HNF4 alpha to DNA; HNF4a-FITC DNA binding, fluorescence polarization, 1 h; activity change, % at 10 µM; hit rate 0.3% among 360,000; AID 1224865; in the data active = activity change above about 30%, passing the limit was not always enough;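 note: controls were the assay level and a saturating level of protein; the project sought stronger binding though the title names inhibitors; some compounds called inactive have numbers as strong as hits; positive values seem to mean higher polarization but the record does not say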
UCH37 DUB inh: inhibitors of human deubiquitinating enzyme UCH37 | Q9Y5K5 | purified proteasome/UCH37, Ub-AMC cleavage fluorescence | inhibition, % (no concentration beside the values) | hit rate 0.33% among 330,000;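 active = mean of two replicates above 20%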;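 note: 0% = compound-free wells with enzyme and 100% = wells lacking proteasome; stock transfer was 100 nL into about 20 µL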
Target sequence (Q9Y5K5 whole entry, looked up): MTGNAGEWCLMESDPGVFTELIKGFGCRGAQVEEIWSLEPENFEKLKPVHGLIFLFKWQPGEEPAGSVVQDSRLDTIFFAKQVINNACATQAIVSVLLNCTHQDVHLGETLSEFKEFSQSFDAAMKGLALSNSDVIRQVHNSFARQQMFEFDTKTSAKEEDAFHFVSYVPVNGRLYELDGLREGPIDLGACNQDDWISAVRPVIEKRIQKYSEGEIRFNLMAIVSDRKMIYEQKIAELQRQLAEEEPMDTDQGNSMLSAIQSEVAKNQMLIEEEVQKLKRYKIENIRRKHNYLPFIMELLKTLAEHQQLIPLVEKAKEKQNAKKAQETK
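System: Proteasome-associated human UCH37 deubiquitinase; Input: 0.15 nM proteasome in added enzyme buffer; Also added: Ub-AMC substrate from 1 µM stock; Incubation: 30 min compound-proteasome preincubation then 25 min substrate reaction, room temperature; Detection: fluorescence, ex 355 nm, em 460 nm; Read-out: % inhibition of Ub-AMC cleavage fluorescence; Benchmarks: no-proteasome and no-compound wells.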
Ecoli rRNA inh OD600: further read-out of Ecoli rRNA inh, marked with its call; OD600 change, %; measured here: OD600 growth;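 optical density of the mix in the first replicate; 0 = DMSO median and -100 = no signal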
Ecoli rRNA inh RFP: also measured in Ecoli rRNA inh; calls as there; RFP signal change, %; measured here: RFP humanized mutant strains;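 first replicate; 0 = DMSO median and -100 = no signal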
An asterisk follows results filed as active; i = inactive; ? = inconclusive; · = no result given; & = joins results of further samples. The list is partial. The share of hits here may be higher or lower than overall.

The line under a structure holds: Ecoli rRNA inh	Ecoli rRNA inh OD600	Ecoli rRNA inh RFP	ALR H2O2 inh	Beta2AR agonist	FGF22 binding	E coli growth	HNF4A DNA FP	UCH37 DUB inh
1. CC1([N+](=O)[O-])COP(=O)(Nc2ccc(Cl)cc2)OC1 (centres undefined)
    -6	-7	2.7	·	-2	i	·	-0.5	·
2. COC(=O)C1=C(c2ccc(OC(F)(F)F)cc2)C[C@@H]2CC[C@H]1N2C(=O)N1CCCC1
    10	5	9.7	-3	-3	i	·	-0.5	1.4
3. COC(=O)c1ccc(N2C(=O)CC(N3CCC(n4c(=O)[nH]c5ccccc54)CC3)C2=O)cc1 (centres undefined)
    ·	·	·	2	-1	·	0.68	0.2	1.7
4. O=C1C2C3CCC(O3)C2C(=O)N1CCO (centres undefined)
    -2	-1	0.8	-15	-7	i	0.66	-1.4	0.5
5. O=C(NC1CCCCC1)N1Cc2cc(N3CCCCC3)ccc2-n2nncc2C1
    -4	-18	3.5	·	·	i	·	7.1	·
6. COc1ccc(-n2c(Cc3cccc([N+](=O)[O-])c3)nc3ccccc3c2=O)cc1
    13	11	3.1	-22	-7	i	0.69	1.0	3.1
7. C[N+]1(C)C2CC(OC(=O)[C@H](CO)c3ccccc3)CC1C1OC12 (some centres undefined)
    ·	·	·	-19	2	i	·	2.6	1.9
8. c1cncc(C2CCCN2)c1 (centres undefined)
    ·	·	·	-22	·	·	0.65	·	2.1
9. CCOC(=O)C1(CCOc2ccccc2)CCN(C(C)CSC)CC1 (centres undefined)
    -4	2	-2.9	·	-3	i	0.65	2.3	-1.2
10. c1cncc(C2CC(c3cccs3)n3ncnc3N2)c1 (centres undefined)
    ·	·	·	-4	-1	·	0.71	1.8	-1.9
11. COc1ccc(C(C)=O)cc1Cc1c(O)[nH]c(=S)[nH]c1=O
    -38	-33	-16	-21	-4	i	0.68	1.4	1.1
12. COc1ccc(/C=C2\C(=O)NC(=S)N(C)C2=O)cc1C
    12	7	-1.4	21	-9	i	0.69	-70	1.8
13. COc1ccccc1NC(=O)COC(=O)c1cn(C)c2ccccc12
    -17	-26	1.0	0	11	i	0.68	-4.3	3.0
14. CCOc1cc(C=C2C(=O)NC(=S)NC2=O)ccc1O
    6	17	-3.1	·	6	i	0.64	-1.9	7.1
15. COC(=O)C1=C(c2cc3ccccc3o2)C[C@@H]2CC[C@H]1N2C(=O)NCc1ccco1
    -7	-12	-0.4	1	1	i	·	-1.0	2.6
16. Cc1cc(OCC(=O)N2CCCN(C)CC2)ccc1Cl
    -4	1	-2.5	-16	-2	i	0.66	-0.4	-3.3
17. COC(=O)C1=C(c2ccc(-c3ccccc3)c(F)c2)C[C@@H]2CC[C@H]1N2C(=O)N1CCOCC1
    -31	-58	-5.1	-6	3	i	·	6.8	3.4
18. COCc1ccc(CN2CCCC(C(=O)c3sccc3C)C2)o1 (centres undefined)
    14	10	4.4	1	-1	i	0.68	1.5	1.6
19. CC1CC(OP(O)(=S)c2ccc(N(C)C)cc2NC(=O)c2cccs2)CC(C)(C)C1 (centres undefined)
    -5	7	3.5	99*	-6	i	0.62	0.1	6.4
20. COc1ccccc1C1C([N+](=O)[O-])=C(N)Oc2c1c(=O)oc1ccccc21 (centres undefined)
    -22	-12	48	0	-5	i	0.68	0.8	7.5
21. O=P(/C(=N/O)N1CCCCC1)(N1CCOCC1)N1CCOCC1
    ·	·	·	3	0	·	·	-0.2	·
22. CN1c2ccc([N+](=O)[O-])cc2CC2(C(=O)NC(=O)N(c3ccc(Br)cc3)C2=O)C1c1ccccc1 (centres undefined)
    4	4	2.0	-2	13	i	0.71	0.1	5.0
23. O=c1c2ccccc2nc(-c2ccccc2)n1-c1ccncc1
    ·	·	·	·	-11	·	0.66	0.2	3.2
24. COC1C(OC(=O)c2ccc(C)[nH]2)C(O)C(Oc2ccc3c(O)c(NC(=O)c4ccc(O)c(CC=C(C)C)c4)c(=O)oc3c2Cl)OC1(C)C (centres undefined)
    -59	-82	-35	43	29	i	0.052*	2.8	3.0
25. Cc1ccccc1N
    4	2	-0.8	-8	5	i	0.65	3.2	-0.1
26. O=S1(=O)N(CCN2CC=C(c3c[nH]c4cc(F)ccc34)CC2)c2cccc3c2N1CCC3
    ·	·	·	·	-3	i	0.69	6.4	0.2
27. CCOP(=O)(OCC)C(NC(=O)c1ccccc1C)C(Cl)(Cl)Cl (centres undefined)
    ·	·	·	-7	17	·	0.65	2.3	2.9
28. Nc1cccc(SC2CC(=O)N(c3ccc(Cl)cc3C(=O)c3ccccc3)C2=O)c1 (centres undefined)
    -8	-22	-1.9	·	·	i	·	1.5	·
29. NC(=Nc1ccccc1)NN=Cc1c[nH]c2ccccc12
    -1	-1	9.5	·	34	i	·	0.6	·
30. O=c1c2ccccc2nc(-c2ccccc2)n1-c1ccccc1
    -13	-1	1.8	·	-12	i	0.69	-2.7	-0.9
31. CCCCn1c(O)c(C(C)=Nc2ccc3c(c2)CCC3)c(=O)[nH]c1=O
    -5	6	-1.1	·	-7	i	0.7	4.5	-4.1
32. CCC12CN3CCN(CC(C3)/C1=N/NC(=O)c1ccncc1)C2
    13	4	-1.7	-7	16	i	·	-0.8	·
33. c1ccc(CNC2=NCCS2)cc1
    ·	·	·	0	-8	·	0.77	-1.1	4.5
34. Fc1ccc(C2NCCc3[nH]cnc32)cc1 (centres undefined)
    ·	·	·	1	1	·	0.69	0.8	4.2
35. O=C(Nc1ccc(Cl)cc1)N1CC1
    -50	-57	-16	·	-2	i	0.64	2.5	1.5
36. Cc1ccc(S(=O)(=O)c2nc(-c3ccccc3Cl)oc2N(C)C2CCN(C)CC2)cc1
    ·	·	·	-3	24	i	0.68	-0.4	1.6
37. O=C(c1ccc(N2CC3CC(C2)c2cccc(=O)n2C3)c([N+](=O)[O-])c1)N1CCCCC1 (centres undefined)
    ·	·	·	2	-5	·	0.62	-2.7	2.2
38. O=C1NC(=O)N(c2ccccc2)C(=O)/C1=C/C=C/c1ccco1
    10	9	29	97*	59*	i	·	-1.1	·
39. Clc1cccc(CN2CCCCC2c2cccnc2)c1 (centres undefined)
    1	4	-10	-13	2	i	0.66	-1.0	-0.3
40. CCOC(=O)C1(CCOc2ccccc2)CCN(C2Cc3ccccc3C2)CC1
    -20	-19	-2.5	0	2	i	0.65	-4.5	4.9
41. COc1ccc(CC2(CCc3ccncc3)C(=O)NC(=O)NC2=O)cc1
    7	7	0.1	-5	-1	i	0.67	-0.7	2.9
42. COc1cc(OC)c(OC)cc1CNCCc1cccc(F)c1
    19	12	3.0	-37	2	i	0.65	4.6	2.9
43. CC(C)(C)n1cc(C(=O)c2ccccc2)cc1-c1ccccc1
    0	-1	-5.0	-34	-6	i	0.67	3.0	4.6
44. CCOP(=O)(OCC)C(NC(C)=O)C(Cl)(Cl)Cl (centres undefined)
    ·	·	·	-10	-1	·	0.69	0.4	0.3
45. Cc1cccnc1NC1=NCC(C)S1 (centres undefined)
    ·	·	·	-2	7	·	0.68	1.5	3.9
46. O=c1[nH]c(=O)n(Cc2ccccc2)c(O)c1C=NCCN1CCNCC1
    ·	·	·	-5	-8	·	0.7	1.4	3.9
47. CC(C(=O)O)N(C(=O)c1ccccc1)c1ccc(F)c(Cl)c1 (centres undefined)
    7	5	-3.2	-15	4	i	0.66	-4.3	-1.1
48. Cc1ccc(NP(=O)(c2ccccc2)c2nc3ccccc3s2)cc1 (centres undefined)
    -6	-9	-6.0	-12	11	i	0.63	2.0	2.9
49. COC(=O)C1=C(c2ccc(OC)c(OC)c2)C[C@@H]2CC[C@H]1N2C(=O)NCCc1ccccc1
    -11	-17	8.4	3	-4	i	·	1.3	3.3
50. O=[N+]([O-])c1cc(Cl)c(Cl)cc1Cl
    1	3	-0.4	-2	-1	i	0.67	4.3	0.8
51. CCCCn1c(=O)c(C(=O)Nc2ncccc2C)c(O)c2ccccc21
    3	14	-0.6	19	2	i	0.71	-1.0	-0.8
52. CCOC(=O)C(O)(c1ccc(N(CC)C(=O)COc2ccccc2)cc1)C(F)(F)F (centres undefined)
    ·	·	·	-1	1	·	0.7	-0.1	5.2
53. Cn1c(=O)c2c(nc(-c3ccc(N(CCCl)CCCl)cc3)n2C)n(C)c1=O
    ·	·	·	·	22	i	0.68	-1.6	i
54. c1cc2c(cc1N1CCOCC1)CNCc1cnnn1-2
    6	5	-0.7	·	·	i	·	-1.4	·
55. NC(Cc1ccc(O)cc1)C(=O)NN=Cc1ccc(N(CCCl)CCCl)cc1 (centres undefined)
    6	8	6.7	·	8	i	0.7	1.2	-73
56. O=S(=O)(c1ccc(Cl)cc1)N1Cc2cc(Br)ccc2-n2nncc2C1
    -17	-27	-9.6	·	·	i	·	-1.2	·
57. Cn1c(=O)cc(SCC(=O)N2CCC3(CC2)OCCO3)c2ccc(Cl)cc21
    ·	·	·	-7	-7	·	0.67	1.4	1.5
58. O=C1CC(=O)N(Cc2ccccc2)C(=O)N1
    17	7	-1.8	·	-7	i	·	4.5	·
59. CN(C)c1ccccc1
    16	24	6.0	·	·	i	·	-1.6	·
60. C[N+](C)(N)CCOC(=O)C(O)(c1ccccc1)C1CCCCC1 (centres undefined)
    ·	·	·	1	98*	i	0.63	2.3	1.3

Reformatted: four of the compounds above.
33) c1ccc(CNC2=NCCS2)cc1
34) Fc1ccc(C2NCCc3[nH]cnc32)cc1 (centres undefined)
35) O=C(Nc1ccc(Cl)cc1)N1CC1
36) Cc1ccc(S(=O)(=O)c2nc(-c3ccccc3Cl)oc2N(C)C2CCN(C)CC2)cc1
entry no.	33	34	35	36
Ecoli rRNA inh	·	·	-50	·
Ecoli rRNA inh OD600	·	·	-57	·
Ecoli rRNA inh RFP	·	·	-16	·
ALR H2O2 inh	0	1	·	-3
Beta2AR agonist	-8	1	-2	24
FGF22 binding	·	·	i	i
E coli growth	0.77	0.69	0.64	0.68
HNF4A DNA FP	-1.1	0.8	2.5	-0.4
UCH37 DUB inh	4.5	4.2	1.5	1.6

(cont.)
The line under a structure holds: Ecoli rRNA inh	Ecoli rRNA inh OD600	Ecoli rRNA inh RFP	ALR H2O2 inh	Beta2AR agonist	FGF22 binding	E coli growth	HNF4A DNA FP	UCH37 DUB inh
61. COCCNC(=O)c1c(NC(=O)c2ccc(Br)o2)n(Cc2ccccc2)c2nc3ccccc3nc12
    ·	·	·	?	10	·	·	26	-67
62. CCOP(=O)(CN(CC)CCNP(=O)(OCC)OCC)OCC
    ·	·	·	-4	-2	·	0.72	0.1	2.4
63. COc1ccc(C(=O)NC(=S)N2C[C@H]3C[C@H](C2)c2cccc(=O)n2C3)cc1
    ·	·	·	7	3	i	0.72	-6.3	0.9
64. C=CCN1CC[C@]23c4c5ccc(O)c4OC2C(=O)CC[C@@]3(O)C1C5 (some centres undefined)
    4	9	1.8	·	-6	i	0.72&0.68&0.64	-3.1	0.8
65. CC(=O)N1CC(=O)Nc2ccc(Cl)cc2C1c1ccc(F)cc1 (centres undefined)
    -2	-3	-7.9	0	9	i	0.71	-0.4	-0.1
66. Cc1ccc(-n2c(=S)[nH]c3ccccc3c2=O)cc1F
    -15	-22	2.4	·	·	i	·	0.6	·
67. CCOc1ccc2nc(N=Nc3c(O)[nH]c(=O)[nH]c3=O)sc2c1
    -20*	4.9*	5.3*	9	-2	i	0.71	2.5	19
68. CN(C)CP(=O)(Nc1ccccc1)N(C)C (centres undefined)
    ·	·	·	5	7	·	0.75	-0.2	3.2
69. Oc1c(Cl)cc(Cl)cc1CN1CCN(Cc2ccccc2)CC1
    -51	-76	-25	4	-3	i	0.66	-1.3	1.7

Screening data (PubChem)
